HSV augment: increases HSV replication in cells; HSV replication augmentation in cells, fold increase; maximum fold increase; actives 0.005% (n = 220,000);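 active means peak rise of 1.5-fold or more in the series; tested in PC3 cells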;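 further: first round at 10 µM; read as green reporter fluorescence; hits show the peak of a series up to 25 µM; 1 = signal of infected wells without compound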
PKD1 inh: PKD1 (human) kinase inhibition. actives 0.056% (n = 200,000). AID 797. PKD1 kinase fluorescence polarization assay. Q15139. inhibition, %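 (about 10 µM by stock and volumes)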;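 active means inhibition of 50% or more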;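 further: controls were vehicle for no effect and a reference inhibitor for full effect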
GALR2 agonist: agonists of human galanin receptor 2 (GALR2) | O43603 | GALR2-expressing cells, agonist activation read-out | activation, %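 (tested at 5 µM)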 | actives 0.48% (n = 140,000) | AID 803;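 active means above mean plus 3 SD of all compounds, about 5% in these data, not always enough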;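 further: 0% = vehicle buffer wells and 100% = reference agonist at full effect; tested in CHO reporter cells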
Target sequence (O43603 whole entry, looked up): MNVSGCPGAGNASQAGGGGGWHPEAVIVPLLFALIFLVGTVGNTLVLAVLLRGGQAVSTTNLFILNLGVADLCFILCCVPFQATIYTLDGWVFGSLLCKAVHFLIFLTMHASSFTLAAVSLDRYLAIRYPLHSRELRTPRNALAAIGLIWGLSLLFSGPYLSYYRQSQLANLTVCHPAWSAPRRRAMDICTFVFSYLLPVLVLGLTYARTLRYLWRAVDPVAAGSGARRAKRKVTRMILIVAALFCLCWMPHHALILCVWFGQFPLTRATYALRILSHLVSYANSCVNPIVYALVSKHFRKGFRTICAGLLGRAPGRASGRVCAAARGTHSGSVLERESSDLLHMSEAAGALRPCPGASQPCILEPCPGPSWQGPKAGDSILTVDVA
INS promoter inh: TRM-6 insulin promoter activity inhibition | actives 0.9% (n = 130,000) | TRM-6 cells (human fetal islet line), insulin promoter-eGFP reporter, imaging; reporter expression induced with tamoxifen | inhibition, % at 2 µM;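 active means inhibition above the mean plus 3 SD, with well images judged a real hit on visual review, cut at about 60% in these data, passing the limit was not always enough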
RGS16-Gao HTS: modulates binding between human RGS16 and Galphao; binding response (% of control), % at 10 µM; actives 0.38% (n = 220,000); O15492+P09471; bead-based flow cytometry RGS16-Galphao binding, fluorescence; actives lie on both sides;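 active means below 25% or above 175%, edge rows of some plates excepted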;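 further: Galphao activated by GDP with aluminum fluoride before binding; 100% = wells without compound and 0% = beads without RGS; some results beyond the cut were filed as inactive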
Target sequence (O15492 whole entry, looked up): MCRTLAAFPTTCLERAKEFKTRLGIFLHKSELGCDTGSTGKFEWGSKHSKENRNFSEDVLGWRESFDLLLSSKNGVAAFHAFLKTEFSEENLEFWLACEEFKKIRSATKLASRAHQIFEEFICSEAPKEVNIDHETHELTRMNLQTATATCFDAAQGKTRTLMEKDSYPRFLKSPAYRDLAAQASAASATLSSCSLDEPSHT
Target sequence (P09471 whole entry, looked up): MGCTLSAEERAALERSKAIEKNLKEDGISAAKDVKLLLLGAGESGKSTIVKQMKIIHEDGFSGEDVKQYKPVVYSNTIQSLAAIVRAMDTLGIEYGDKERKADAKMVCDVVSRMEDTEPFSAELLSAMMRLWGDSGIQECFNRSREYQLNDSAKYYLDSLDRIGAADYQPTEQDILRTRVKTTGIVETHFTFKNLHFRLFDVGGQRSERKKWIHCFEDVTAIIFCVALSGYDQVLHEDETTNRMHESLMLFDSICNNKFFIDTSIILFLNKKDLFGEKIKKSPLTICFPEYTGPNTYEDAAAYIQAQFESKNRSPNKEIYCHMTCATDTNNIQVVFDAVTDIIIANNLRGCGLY
INS promoter inh cell count: recorded beside INS promoter inh, whose call it bears; normalized cell count, %; measured here: cell count, toxicity; reference of the scale not given here;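 cells exposed to compound for 48 h; stained nuclei by imaging scaled within each plate; lower means fewer cells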
HSV augment primary fold: also measured in HSV augment; calls as there; fold increase; compound at 10 µM; measured here: primary screen fold increase 10 uM; tested in PC3 cells;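 GFP signal in the first replicate; 1 = infected wells without compound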
Numbers without * were called inactive; i = inactive; / = not tested or not shown.

SMILES	HSV augment	HSV augment primary fold	PKD1 inh	GALR2 agonist	INS promoter inh	INS promoter inh cell count	RGS16-Gao HTS
CCOc1cccc(OCCCCn2cnc3ccccc3c2=O)c1	i	0.92	0	/	/	/	100
COc1ccccc1NC(=O)C1=C(C)NC2=C(C(=O)CC(c3ccc(OC)c(OC)c3)C2)C1c1coc2ccccc2c1=O (centres undefined)	i	0.92	-4	-3.9	0	87	45
COc1ccc(Cl)cc1NC(=O)c1cccnc1	i	0.85	-8	-2.4	/	/	100
Cc1cccc(-n2c(C)nc3c(cnn3-c3ccc(F)cc3)c2=O)c1	i	0.94	12	0.1	0	140	103
COc1ccc(CN(CCO)CCO)cc1[N+](=O)[O-]	i	0.91	-8	0.1	31	145	100
O=C(CCC1CCCCC1)NNC(=O)c1cnccn1	i	1	0	-1.3	-3	105	109
Nc1nc(CSc2nnnn2-c2ccccc2)nc(N2CCCc3ccccc32)n1	i	0.9	-10	-1.0	-447	60	98
Cc1c(Cl)cccc1NC(=S)N1CCN(c2ccc([N+](=O)[O-])cn2)CC1	i	0.84	/	/	/	/	105
Cc1ccc(/C=N/OC(=O)c2nn(C)cc2Cl)cc1	i	1	-7	/	0	130	94
Cc1nc(C)c(C(=O)N/N=C/c2c[nH]c3ccccc23)s1	i	0.73	2	0.0	35	101	109
CC(=O)c1ccc(NC(=O)COC(=O)CCC(=O)c2cccs2)cc1	i	0.9	11	-1.5	-75	97	104
COCCCNC(=O)c1ccc(Cn2c(=O)c3ccccc3n(CC(=O)NCCc3ccc(OC)c(OC)c3)c2=O)cc1	i	0.84	-6	/	/	/	90
O=C(Nc1cc(Cl)c(O)c(Cl)c1)C1CCCO1 (centres undefined)	i	0.82	2	-1.8	21	102	104
Nc1c(-c2cccs2)cnn1-c1nc(-c2ccc(F)cc2)cs1	i	0.81	1	-1.6	/	/	98
CCS(=O)(=O)Nc1ccc(C(=O)CC2(O)C(=O)Nc3ccccc32)cc1 (centres undefined)	i	0.97	-5	-0.3	-3	134	107
CC1CCN(C(=O)Cn2cc(C(=O)C3CC3)c3ccccc32)CC1	i	0.99	-10	-1.9	-50	98	85
Fc1ccccc1NC(=S)Nc1cccnc1	i	0.97	3	/	/	/	115
O=C(COC(=O)c1n[nH]c(=O)c2ccccc12)c1ccc(Br)cc1	i	0.97	1	/	40	78	110
Cc1cccc(N2C(=O)CC(N3CCN(c4ccccn4)CC3)C2=O)c1 (centres undefined)	i	1	-4	/	/	/	96
CCOc1ccc(NC(=O)CSc2nnc(C3CC3)n2C)cc1	i	1.1	-5	/	/	/	107
O=C(O)/C=C/C(=O)NCc1csc2ccccc12	i	0.97	/	/	/	/	107
Cc1sc(NC(=O)c2cc3ccccc3oc2=O)c(C(=O)OC(C)C)c1-c1ccccc1	i	0.97	-10	-3.3	17	99	98
Cc1[nH]c(-c2ccco2)nc1C(=O)O	i	1.1	-7	-3.4	-43	139	97
CN1CCN(C2=C(NS(=O)(=O)c3cccs3)C(=O)c3ccccc3C2=O)CC1	i	0.82	/	/	/	/	104
COCCCNC(=O)/C=C/c1cccc(Cl)c1	i	0.76	-5	-0.9	-19	146	99
NNc1ccc2c(C(F)(F)F)cc(C(F)(F)F)nc2n1	i	1	-4	/	-92	47	100
O=C(COC(=O)c1ccccc1)NCc1cccs1	i	0.91	-6	-3.0	46	104	108
CSCCC(NC(=O)c1ccccc1)C(=O)OCC(=O)c1ccc[nH]1 (centres undefined)	i	0.78	-15	-0.1	21	91	99
COc1nccc(Nc2ccccc2)c1C#N	i	0.96	-14	-1.4	9	120	104
Cc1ccccc1NC(=O)c1oc(=O)c2ccccc2c1-c1ccccc1	i	0.89	10	2.0	8	104	111
CCc1ccc(-c2cc(C(F)(F)F)n3nc(C(=O)Nc4cnn(Cc5ccc(C)cc5)c4)cc3n2)s1	i	0.57	-2	6.4	-3	84	100
C/C(N)=C(/C#N)C(=O)CSc1nc2ccccc2c(=O)n1Cc1ccc(F)cc1	i	1	/	/	/	/	96
Cc1ccc(Nc2cc(C)nc3nc(C)nn23)c(C)c1	/	/	-13	-0.9	-10	99	102
CCOC(=O)N1CCN(C(=O)CCn2nc(-c3ccc(Cl)cc3)ccc2=O)CC1	i	0.96	1	-0.5	-31	70	94
NCCCC(=O)N1c2ccccc2Sc2ccccc21	i	1	9	-1.6	/	/	104
CCN(CC(=O)NCCc1ccc(F)cc1)Cc1nc2ccccc2c(=O)[nH]1	i	0.99	/	/	/	/	101
COc1ccccc1NC(=O)c1ccccc1-c1nc(-c2ccccc2OC)no1	i	0.85	-8	-1.5	-400	45	96
CC1(C)CC(=O)C(CC(=O)NC(=O)NCc2ccccc2)=C(O)C1	i	1	-5	-1.4	41	81	107
COc1ccc(N2CCN(C(=O)CSc3nnnn3-c3ccc4c(c3)OCCO4)CC2)cc1	i	1	13	-1.1	/	/	97
CCN(CC)S(=O)(=O)c1cc([N+](=O)[O-])ccc1NNC(=O)Nc1ccccc1OC	i	1	-9	-2.3	-43	94	103
Cc1cc(C)c(C2C(C#N)=C(N)Oc3n[nH]c(C)c32)cc1CN1CCOCC1 (centres undefined)	i	0.9	-5	-2.5	-15	84	102
O=c1cc(CN2CCc3ccccc3C2)nc2sccn12	i	0.97	4	/	26	91	92
Cn1c2ccccc2c2cc(C(=O)OCC(=O)N3CC(=O)Nc4ccccc43)sc21	i	1.1	-19	-0.9	-93	106	99
COc1cc(C(=O)NNC(=O)Nc2ccc([N+](=O)[O-])cc2)cc(OC)c1OC	i	0.95	-5	/	-33	127	100
CC(=O)[C@@]1(O)CC[C@H]2[C@@H]3C[C@H](C)C4=CC(=O)C=C[C@]4(C)[C@@]3(F)[C@@H](O)C[C@@]21C	i	1.1	-13	0.8	5	107	89
CCCC(=O)Nc1ccccc1NC(C)=O	i	0.73	-2	-2.7	6	57	102
O=C1COc2ccc(C(=O)COC(=O)c3cc(S(=O)(=O)NCc4ccccc4)ccc3O)cc2N1	i	0.98	/	/	/	/	96
COc1ccc(-n2nc(C(=O)c3cccs3)cc(-c3nc4ccccc4[nH]3)c2=N)cc1	/	/	-3	-1.4	17	175	121
CN(C)c1ccccc1C(=O)N1CCCC(C(=O)c2ccc3ccccc3c2)C1 (centres undefined)	i	1	-3	/	/	/	96
O=C(c1cncs1)N1CCCC(CNS(=O)(=O)c2cccs2)C1 (centres undefined)	i	1	-1	/	/	/	94
COc1ccc(NC(=O)CSc2nnc(-c3cccs3)n2Cc2ccco2)cc1OC	i	0.93	-3	0.1	73*	109*	111
COc1ccc(N(CC(=O)Nc2ccc3c(c2)OCCO3)S(=O)(=O)c2cccnc2)cc1	i	1	-13	-0.1	-50	132	103
O=C(Nc1ccc2oc(-c3ccccc3F)nc2c1)c1ncn[nH]1	/	/	-10	-0.2	21	121	98
COc1ccc(-n2c(C)nnc2SCC(=O)N2C(C)CCCC2C)cc1 (centres undefined)	i	0.98	2	-3.4	-37	183	105
COc1ccc(/C=N/NC(=O)c2ccccc2O)cc1COc1ccccn1	i	0.92	/	/	/	/	96
COCC(C)n1c(C)cc(C(=O)COc2ccc(C)nc2[N+](=O)[O-])c1C (centres undefined)	i	0.96	1	/	/	/	102
COc1ccc(CN2CCCCC2c2cccnc2)c(OC)c1C (centres undefined)	i	1.1	-15	0.1	/	/	/
O=C(CCC1CCCC1)c1c(O)c2ccccc2oc1=O	i	0.92	9	-2.6	/	/	100
O=C(NC1CCC(c2ccccc2)CC1)c1cccnc1 (centres undefined)	i	0.89	-3	/	/	/	106
Cc1cccc(NC(=O)CN2C(=O)N/C(=C/c3ccc(C)o3)C2=O)c1	/	/	-2	-0.4	-10	53	108

Continuation:
SMILES	HSV augment	HSV augment primary fold	PKD1 inh	GALR2 agonist	INS promoter inh	INS promoter inh cell count	RGS16-Gao HTS
CCN(CC)CC(=O)Nc1ccc(C)cc1C(=O)c1ccccc1	i	1.1	/	/	/	/	104
CCCCn1c(-c2ccccc2)nc2c(=O)n(C)c(=O)[nH]c21	i	0.95	-10	-1.6	33	91	103
c1ccc(NC2=NCCCCS2)cc1	i	0.87	-6	-0.7	19	91	99
Cc1nn(C(=O)c2c(-c3ccccc3)noc2C)c(C)c1N=Nc1cc(C(F)(F)F)cc(C(F)(F)F)c1	i	1	/	/	/	/	98
CS(=O)(=O)Nc1nc2n(n1)C(c1ccccc1)CC(c1ccccc1)N2 (centres undefined)	i	1	/	/	/	/	99
COc1cccc(NC(=O)CSC(N)=O)c1	i	0.93	-6	0.0	33	203	97
COc1cc(OC)cc(C(=O)OCC(=O)NCc2ccc3c(c2)OCO3)c1	i	0.97	-4	/	/	/	100
CCOCCn1c(SCC(=O)OCc2ccccc2)nc2c1c(=O)[nH]c(=O)n2C	i	0.83	/	/	/	/	99
COc1ccc(N(CC(=O)NCCC2=CCCCC2)S(=O)(=O)c2ccccc2)c(OC)c1	i	0.93	-1	/	-78	71	105
O=C(Nc1c(F)cc(F)cc1Br)c1ccco1	i	0.91	-9	-0.4	22	63	106
O=C(/C=N\O)NCCCNCc1ccccc1	i	0.83	-3	-3.1	/	/	102
COc1ccc(CN2CCCC(CNC(=O)c3ccc(F)cc3)C2)c(C)c1C (centres undefined)	i	1.1	4	/	/	/	102
CCNC(=O)COC(=O)Cc1ccc(Cl)cc1Cl	i	0.9	-1	/	/	/	95
COc1ccc(/C=C2\CC/C(=C\c3ccc(OC)c(OC)c3)C2=O)cc1OC	i	0.83	1	-1.4	8	110	106
CC12CCC(C(=O)NCc3ccc4c(c3)OCO4)(C(=O)C1=O)C2(C)C (centres undefined)	i	0.97	-3	0.8	21	172	100
COC(=O)c1[nH]c2cccc(OC)c2c1NC(=O)CCN1CCC(C(N)=O)CC1	i	1.1	2	-1.5	54	139	106
O=CN/C=C/c1cc(O)ccc1O	i	1.1	/	/	/	/	97
CN=c1sc2ccccc2n1CC(O)COCc1ccco1 (centres undefined)	i	0.69	-4	0.6	7	220	132
CSc1ccc(/C=C/C(=O)N2CCCN(C)CC2)cc1	i	0.93	-1	/	/	/	94
O=C(Nc1cc(N2CCOCC2)ncn1)c1ccc(F)cc1	i	1.1	-5	/	/	/	98
CCOc1c(/C=C(\C#N)C(N)=O)c2ccccc2n1CC	i	0.86	4	-1.0	44	161	110
O=S(=O)(Cc1ccccc1)/C1=C(\N2CCOCC2)CCCCCC1	i	0.79	3	0.6	/	/	103
O=C(CNC(=O)c1ccco1)OCC(=O)c1ccc2c(c1)CCCC2	i	0.94	5	-1.9	/	/	115
Cc1cc(C)c2nc(NC(=O)c3cc(C)on3)sc2c1	i	0.82	-2	-1.5	-2	68	107
CN1CCN(CCCC(=O)c2ccc(C3CCCC3)cc2)CC1	/	/	2	0.5	-83	80	114
CC(C)CC(=O)N1CC(C)N(C(=O)CC(C)C)CC1C (centres undefined)	i	1	4	0.1	13	119	101
CCOC(=O)CC1=CSC2=NS(=O)(=O)CCN12	i	0.93	-8	-2.8	/	/	101
CCN1CCN(C(c2ccccn2)c2c(NC(=O)c3ccccc3)sc(C)c2C)CC1 (centres undefined)	i	0.87	2	0.0	/	/	91
COc1cccc(OCCCCCN2CCOCC2)c1	i	0.84	7	-0.9	-82	108	103
COC(=O)NCC(c1ccco1)N1CCN(c2ccc(F)cc2)CC1 (centres undefined)	i	1	-1	-0.4	/	/	103
Cc1ccc2nc(SCC(=O)N3CCCC3)[nH]c2c1	i	1	-2	-0.9	/	/	87
Cn1c(/C(C#N)=C(\O)CN2CCN(Cc3ccccc3)CC2)nc2ccccc21	i	0.94	-19	-1.1	/	/	99

An excerpt of these results, in markdown.
| SMILES | HSV augment | HSV augment primary fold | PKD1 inh | GALR2 agonist | INS promoter inh | INS promoter inh cell count | RGS16-Gao HTS |
| --- | --- | --- | --- | --- | --- | --- | --- |
| COc1ccc(-n2c(C)nnc2SCC(=O)N2C(C)CCCC2C)cc1 (centres undefined) | i | 0.98 | 2 | -3.4 | -37 | 183 | 105 |
| O=C(c1cncs1)N1CCCC(CNS(=O)(=O)c2cccs2)C1 (centres undefined) | i | 1 | -1 | / | / | / | 94 |
| CN1CCN(C2=C(NS(=O)(=O)c3cccs3)C(=O)c3ccccc3C2=O)CC1 | i | 0.82 | / | / | / | / | 104 |
| COc1nccc(Nc2ccccc2)c1C#N | i | 0.96 | -14 | -1.4 | 9 | 120 | 104 |
| CCNC(=O)COC(=O)Cc1ccc(Cl)cc1Cl | i | 0.9 | -1 | / | / | / | 95 |
| O=C1COc2ccc(C(=O)COC(=O)c3cc(S(=O)(=O)NCc4ccccc4)ccc3O)cc2N1 | i | 0.98 | / | / | / | / | 96 |
| CCOC(=O)N1CCN(C(=O)CCn2nc(-c3ccc(Cl)cc3)ccc2=O)CC1 | i | 0.96 | 1 | -0.5 | -31 | 70 | 94 |

Screening results from PubChem BioAssay.
